# Screening data deposited in PubChem by ICCB-Longwood Screening Facility, Harvard Medical School.
# BasE inh: blocks the Acinetobacter baumannii siderophore enzyme BasE. purified BasE, fluorescence polarization binding displacement. inhibition, % (no concentration beside the values). actives 0.1% (n = 84,000). AID 485350;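 active means both replicates above 25% with normal brightness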;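 further: 0% = negative plate control signal and 100% = positive plate control signal; stock transfer was 100 nL into about 30 µL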
# LANA-nucl inh: LANA-nucleosome interaction inhibition. FITC-LANA1-23 / chicken nucleosome fluorescence polarization; hits give low values. z-score (test concentration not listed). actives 0.3% (n = 51,000). AID 720717;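 active means both repeat wells score below -2 in polarization z-score versus plate sample wells, excluding overly bright wells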;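 further: 100 nL library stock added to about 30 µL; numbers are from one replicate; some results filed as inactive read as strong as hits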
#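 Assay system: purified chicken nucleosomes with FITC-labelled LANA N-terminal peptide (1-23) / Probe or stimulus: 50 nM FITC-LANA1-23 probe / Compound dosing: pin-transferred compound, 100 nL / Times: compound with peptide–nucleosome mix 10–45 min at room temperature / Technique: fluorescence polarization, 480 nm excitation, 535 nm parallel and perpendicular emission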
# * hit, by the source's call; . = not tested or not shown.
# Every second line gives: BasE inh | LANA-nucl inh
> O=C(c1cc(-c2ccccc2)on1)N1CCCCC1
    -3.2 | -0.1
> COc1ccc(NC(=O)COC(=O)c2cc(=O)c3ccccc3o2)cc1
    -0.6 | .
> O=C(CNS(=O)(=O)c1ccc2c(c1)OCCO2)c1ccc(Cl)cc1
    1.6 | .
> O=c1ccc(-c2ccc(S(=O)(=O)N3CCCC3)o2)n[nH]1
    1.4 | .
> O=S(=O)(Cc1ccccc1)Nc1ccccc1
    3.6 | -0.11
> O=C(OCc1nc2ccccc2c(=O)[nH]1)c1cccs1
    0.6 | .
> Cc1ccc(C(=O)OCC(=O)c2ccccc2)s1
    -1.9 | .
> CCNC(=O)C1CCN(c2nc3cccnc3s2)CC1
    1.6 | -0.72
> CCCC(=O)NC(=S)c1c(C)n(C)n(-c2ccccc2)c1=O
    0.9 | .
> O=c1oc2ccccc2cc1-c1nc(-c2ccc(Cl)cc2)no1
    0.1 | 0.54
> CCCCCOc1ccc2oc(=O)c3c(c2c1)CCCN3C(=O)CN1CCOCC1
    0.7 | 0.029
> COc1ccc(C)cc1NC(=O)C(C)N1CCOCC1 (configuration not stated)
    -3.3 | 0.7
> COc1cc(Cl)cc(C(=O)O)c1OCC(=O)O
    0.0 | -0.94
> Cc1noc(C)c1CSc1ncccc1C(=O)NC1=NCCS1
    0.6 | .
> COc1ccc2ccccc2c1-c1c(OC)ccc2ccccc12
    2.4 | .
> O=C1CCc2cc(S(=O)(=O)NC(Cc3ccccc3)C(=O)Nc3ccc4c(c3)OCCO4)ccc2N1 (configuration not stated)
    1.9 | 0.78
> CCc1cc(OC(F)F)ccc1Cl
    0.6 | .
> COC(=O)/C(O)=C/c1ccc(Cl)cc1
    -3.3 | .
> O=C1CCCCCN1Cc1nnc(Sc2ncnc3cc(-c4ccc(Cl)cc4)sc23)o1
    -2.1 | .
> CCN(CC)CCCOc1ccccc1-c1ccccc1
    0.2 | .
> C=CCN1C(=O)/C(=C\N(C)C)S/C1=N/S(=O)(=O)c1cccs1
    1.2 | -1.6
> CCc1ccc(NC(=O)c2cn(CC)c(=O)c3cc(OC)c(OC)cc23)cc1
    -7.8 | 0.21
> OCCOc1ccccc1OCCO
    1.2 | 0.56
> COc1ccc(Br)cc1S(=O)(=O)Nc1ccc2cn[nH]c2c1
    1.2 | .
> COC(=O)c1ccc(/C=C2/NC(=O)N(Cc3ccc(Br)cc3)C2=O)cc1
    -0.2 | .
> Cc1cc(OCc2nc(-c3ccncc3)no2)c(C)cc1Br
    -1.8 | 1.3
> NC(N)=NN=C1CCC(=NN=C(N)N)CC1
    2.4 | -1.5
> Cc1ccc2n1CCn1cc(-c3ccc(Br)cc3)cc1-2
    2.5 | -0.56
> CC(=O)[C@@]1(O)CC[C@H]2[C@@H]3C[C@H](C)C4=CC(=O)CC[C@]4(C)[C@H]3CC[C@@]21C
    . | 1.9
> CN1C/C(=C\c2ccc(C(F)(F)F)cc2)C2=NN(C)C(c3ccc(C(F)(F)F)cc3)C2C1 (configuration not stated)
    . | -0.6

# A draw from above in order of formula weight, rising:
# Every second line gives: BasE inh | LANA-nucl inh
> Cc1cc(OCc2nc(-c3ccncc3)no2)c(C)cc1Br
    -1.8 | 1.3
> COC(=O)c1ccc(/C=C2/NC(=O)N(Cc3ccc(Br)cc3)C2=O)cc1
    -0.2 | .
> O=C1CCc2cc(S(=O)(=O)NC(Cc3ccccc3)C(=O)Nc3ccc4c(c3)OCCO4)ccc2N1 (configuration not stated)
    1.9 | 0.78

# The list continues:
# Every second line gives: BasE inh | LANA-nucl inh
> O=C(NCCC1=CCCCC1)c1ccccc1CSc1ncn[nH]1
    3.0 | .
> COc1cc2nc(N3CCN(c4cc(C)ccc4C)CC3)nc(N)c2cc1OC
    0.2 | -0.61
> COC(=O)c1ccc(C2NN=C(c3ccccc3)S2)cc1 (configuration not stated)
    0.4 | 0.027
> CCOc1ccc(S(=O)(=O)Nc2cccc(-c3ccc4nncn4n3)c2)cc1
    -2.6 | 3.2
> CC1=CS(=O)(=O)CC1SC(=S)NC(C)C (configuration not stated)
    -2.4 | .
> COC(=O)/C(C#N)=C/c1ccccc1C
    1.7 | -0.72
> O=C(Nc1ccc(Cl)cc1)c1sc2ccccc2c1Cl
    1.5 | .
> Fc1cc(OCc2cnc(Cl)s2)ccc1Cl
    . | 0.062
> CC(C)(C)N(C(=O)c1cc2ccccc2o1)C(=O)N1CCCCC1
    1.0 | -0.31
> COc1cccc(C(=O)NCC(=O)N=Nc2c(O)n(Cc3ccc4c(c3)OCO4)c3ccccc23)c1
    0.4 | -1.4
> CC(C)(C)/C(=N/O)c1ccccc1
    1.5 | -0.84
> CC(C)CN1C(=O)C=CC1=O
    0.3 | 0.3
> COC(=O)c1cc2sc3ccccc3c2s1
    0.3 | .
> CNC(=O)COC(=O)c1cc(-c2ccc(C)o2)nc2ccccc12
    3.1 | .
> Cc1ccc(CN(Cc2ccco2)S(=O)(=O)c2ccc(S(=O)(=O)NC3CC3)cc2)o1
    0.5 | 0.53
> COc1ccc(SCC(=O)c2cc(C)n(Cc3ccco3)c2C)cc1
    -1.1 | .
> CC(C)n1c(=O)[nH]c2cc(C(=O)Nc3nccs3)ccc21
    -8.6 | 0.23
> Cc1cc2occ(CC(=O)Oc3ccc(-c4nnco4)cc3)c2cc1C
    0.7 | .
> COc1ccc(-n2cc(C(=O)NC3CCCc4ccccc43)nn2)cc1 (configuration not stated)
    0.7 | 0.14
> Cc1cnc(C(=O)OCC(=O)c2csc(N3CCCCC3)n2)cn1
    -0.9 | .
> COc1ccc(-c2nc(CSCC(=O)NC3CC3)c(C)o2)cc1OC
    -2.1 | 0.76
> CCCNC(=O)c1cccc(COc2ccccc2OC)c1
    -2.0 | 0.75
> Cc1nnc(SC(C(=O)N2CCCC2)c2ccccc2)n1N (configuration not stated)
    3.2 | .
> Cn1/c(=N/N=C\c2ccccc2)sc2ccccc21
    0.9 | -1.2
> C[N+]1(C)CCC[C@H]1C(=O)[O-]
    -0.9 | 0.53
> C=CCn1c(SCC(=O)N2CCCCC2)nc2scc(-c3ccc(C)o3)c2c1=O
    -0.9 | .
> Cc1onc(-c2c(Cl)cccc2Cl)c1C(=O)Nc1ccc(N2CCCCC2)cc1
    . | -0.42
> CCOC(=O)C1CCN(C(=O)CN2C(=O)C(CC)Oc3ccccc32)CC1 (configuration not stated)
    -0.1 | -0.79
> Cc1sc2ncnc(SCCC(=O)O)c2c1C
    3.0 | .
> CC(=O)NCCNCc1ccc(OCc2csc(C)n2)cc1
    -1.0 | .

# Compounds shown so far with fluorine (three):
# Every second line gives: BasE inh | LANA-nucl inh
> CCc1cc(OC(F)F)ccc1Cl
    0.6 | .
> CN1C/C(=C\c2ccc(C(F)(F)F)cc2)C2=NN(C)C(c3ccc(C(F)(F)F)cc3)C2C1 (configuration not stated)
    . | -0.6
> Fc1cc(OCc2cnc(Cl)s2)ccc1Cl
    . | 0.062

# Remaining list, next part
# Every second line gives: BasE inh | LANA-nucl inh
> CC(C)(C)c1ccc(S(=O)(=O)NCc2ccc(C(=O)N3CCN(C(=O)c4ccco4)CC3)cc2)cc1
    1.1 | -0.72
> CCc1ccc(-c2cc(C)no2)cc1S(=O)(=O)N1CC(C)Sc2ccccc21 (configuration not stated)
    -1.2 | 0.63
> COc1ccc(C(=O)OCc2nnc(-c3ccccc3)o2)cc1S(=O)(=O)N1CCCCC1C (configuration not stated)
    2.9 | .
> CN=Cc1ccccc1Br
    -0.3 | .
> COCC(=O)Nc1cc(-c2cn3cccnc3n2)ccc1OC
    -0.2 | 0.77
> NC(=O)CSc1nccn1Cc1ccccc1
    1.2 | 0.12
> CCOC(=O)c1ccc(NC(=O)N2CCC(CN3CCCCCC3)CC2)cc1
    -2.9 | -0.42
> CCn1cc(C(=O)NCCC2=CCCCC2)c(=O)c2cc(S(=O)(=O)N(C)C)ccc21
    -0.5 | 0.57
> Cc1ccc(-n2c(SCC(=O)NC(C)(C#N)C(C)C)nnc2-c2ccccc2)cc1C (configuration not stated)
    0.2 | .
> CCCN(CCC)C1=C(C(=O)c2ccccc2)N(CC(N)=O)S(=O)(=O)c2ccccc21
    -3.6 | .
> O=C(c1ccc2ncsc2c1)N1CCN(c2ccccc2)CC1
    0.6 | .
> O=C(CN1C(=O)C2CC=CCC2C1=O)NCc1cccc(C(F)(F)F)c1 (configuration not stated)
    0.7 | .
> Cc1cccc(C(=O)Oc2ccc3oc(=O)sc3c2)c1
    1.2 | -0.27
> CCN(CC)c1ccc(C=C2C(=O)N(C)C(=O)N(C)C2=O)o1
    -2.3 | 1.8
> Cc1ccc(C(=O)N2CCCCC2)cc1NC(=O)C1=CSCCO1
    0.6 | -1.2

# Next structures follow.
SMILES,BasE inh,LANA-nucl inh
Oc1ccc(-c2ccccc2)cc1O,3.3,-1
CC1C/C(=N\O)c2ccccc21 (configuration not stated),4.3,0.15
CCC1CN(C(=O)N2CCC(C(=O)N3CCCCC3)CC2)c2ccccc2O1 (configuration not stated),-1.3,-0.029
Nc1ccc(-c2nnc(-c3ccc(N)cc3)o2)cc1,1.6,-0.23
Cc1ccc2nc3c(c(C(=O)O)c2c1)CC(C(C)(C)C)CC3 (configuration not stated),1.1,.
CCNCc1nc2ccccc2c(=O)[nH]1,-0.7,.
CS(=O)(=O)Nc1ccc(C(=O)CSc2nnc3n2CCCCC3)cc1,0.6,.
Cc1ccc(NC(=O)c2sc3nc4c(cc3c2N)CCCC4)cc1,3.5,.
CC(Sc1nc2c(cnn2-c2ccc(Cl)cc2)c(=O)[nH]1)c1ccccc1 (configuration not stated),2.0,-0.5
Cn1ccnc1C(=O)c1ccc(Cl)c(S(=O)(=O)N2CCOCC2)c1,0.2,.
CC(C)(C)N/N=C/c1ccc(O)c(O)c1O,4.6,.
C#CCN1C(=O)S/C(=C/c2cc(CC=C)c(O)c(OC)c2)C1=O,0.9,-0.17
CCCCNS(=O)(=O)c1ccc2c(c1)C(=C(C#N)C#N)c1cc(S(=O)(=O)NCCCC)ccc1-2,1.3,-0.9
CN(C)C(=O)COC(=O)c1ccc(S(=O)(=O)N2CCCc3ccccc32)cc1,1.5,.
CCS(=O)(=O)Nc1cccc(Oc2ccccc2)c1,1.1,.
CCN(CC)Cc1c(O)ccc2c1O/C(=C\c1ccc(C(=O)OC)cc1)C2=O,3.5,-1.1
O=C(NCCOc1cccc2cccnc12)C1CC1,2.9,-0.2
CCC(NC(=O)Nc1ccccc1C(=O)O)(C(F)(F)F)C(F)(F)F,-0.7,1.7
CC1Cc2ccccc2N1S(=O)(=O)c1ccc2[nH]c(=O)[nH]c2c1 (configuration not stated),-1.6,.
NNC(=O)Cc1nc(-c2ccccc2)cs1,0.6,.
Cc1occc1C(=O)N/N=C/c1ccc(F)c(Br)c1,4.1,-0.63
O=C(NCc1ccco1)NCc1c(-c2cccs2)n(Cc2ccccc2)c2ccccc12,-0.3,-0.15
CS(=O)(=O)Nc1ccccc1C(=O)O,1.3,-0.061
COc1ccc(/C=C2\SC(=O)N(CCNC(=O)/C=C/c3ccco3)C2=O)cc1,0.6,.
CN(CC(=O)NCc1ccco1)C(=O)c1ccc(-c2ccc(Cl)cc2)s1,3.2,.
CCCC12CN(C(=O)CC)CC(CCC)(CN(C(=O)CC)C1)C2=O,1.2,.
CC(=O)Nc1nc2c(Cl)cccc2s1,-0.5,0.54
CN1C(=O)C(CC(=O)O)c2ccccc21 (configuration not stated),-2.5,-0.42
Cn1c(C(=O)N2CCC(C(=O)N3CCN(Cc4ccc5c(c4)OCO5)CC3)CC2)cc2sccc21,-3.4,0.14
Cc1cccc(-n2c(C)cc(CNC(=O)NCC3CCCO3)c2C)c1 (configuration not stated),-3.5,.
c1ccc(-c2cc(N3CCCCC3)n3cnnc3n2)cc1,-0.8,0.61
CC1Cc2ccccc2N1C(=O)Nc1ccc2c(c1)OCO2 (configuration not stated),0.3,0.86
COC(=O)C1=C(C)NC2=C(C(=O)CC(c3ccc(N(C)C)cc3)C2)C1c1ccc(O)c(OC)c1 (configuration not stated),0.1,-0.013
O=S(=O)(/C=C/c1ccccc1)Nc1ccc(S(=O)(=O)N2CCOCC2)cc1,3.0,.
c1ccc(-c2ccc(-c3cn4ccccc4n3)cc2)cc1,1.1,.
COC(=O)c1cc(Cc2ccc(N)c(C(=O)OC)c2)ccc1N,6.2,0.49
FC1(F)C2CC3CC(C2)CC1C3,4.1,.
O=c1c(Cl)c(-n2cccn2)cnn1-c1ccc(Cl)cc1Cl,2.8,-0.29
CCCc1cc(=O)n2[nH]cc(-c3ccc(Cl)cc3)c2n1,1.3,-0.23
Nc1cc(N)cc(C(=O)OCN2C(=O)c3ccccc3C2=O)c1,2.9,.
Cc1ccc2c(COC(=O)CCn3c(C)csc3=O)cc(=O)oc2c1,-1.5,.
Cc1csc(=Nc2cccnc2)n1Cc1ccco1,1.9,.
CN(C)P(=NC(=S)N1CCCC1)(N(C)C)C12CC3CC(CC(C3)C1)C2,1.4,.
CC(C(=O)NC(N)=O)N1CCc2ccccc21 (configuration not stated),3.7,.
CCn1c(Cc2ccccc2)nnc1SCc1cccc(C(=O)O)c1,1.8,0.37
COC(=O)c1sc(S(C)(=O)=O)c(C#N)c1-c1cccs1,-0.7,0.45
CC12C=CC(CO)(O1)C1C(=O)N(c3ccc(Br)cc3)C(=O)C12 (configuration not stated),0.7,-1.3
CCn1c(SCCOc2ccc(OC)cc2)nc2ccccc21,-0.6,.
Cc1cccc(C)c1NC1=NC(C)(C)N=C(N)N1,-1.3,0.97
CC(C)Cn1c(N)c(C(=O)COC(=O)c2ccncc2)c(=O)n(C)c1=O,-2.7,.
COC(=O)c1c(O)c(C=Nc2ccc(C)cc2)c(=O)n2c1CCC2,0.4,.

# Not all compounds are listed (hit frequency here may not be typical).
